Bioassay records from PubChem BioAssay.
PD-1 reverse act – reversal of PD-1 mediated T-cell inhibition; primary human CD4 T cells, PD-L1 beads, CellTiter-Glo 96 h; activation, % (concentration not given with the values); 29,000 tested, under 10 active; AID 2316;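 active = replicate mean of 50% or more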;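 also: 0% = median vehicle wells and 100% = positive control; 100 nL library stock added to about 50 µL; numbers are from one replicate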
MITF inhib – MITF inhibition | inhibition, % (concentration not given with the values) | hit rate 0.28% among 37,000 | TRPM1 promoter luciferase, luminescence, 24 h;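 active = most replicates at 85% or more, or half of them and the mean; inconclusive = half reach 85% but not the mean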;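 also: human melanocyte line stably carrying TRPM1 promoter luciferase reporter; 0% = vehicle wells and 100% = a positive control; the first replicate is given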
YB-1 expression – YB-1 expression inhibition. U2OS, qRT-PCR YB-1 vs CDIP delta delta Cp, 16 h; stronger effect = higher value; zero = DMSO, each unit about twofold. delta delta Cp (YB-1 minus CDIP) (test concentration not listed). hit rate 0.37% among 30,000. AID 434959;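 active = delta delta Cp rounded down to an integer at or above 3, about 3 SD of DMSO wells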;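 also: higher means less YB-1 transcript or more CDIP transcript relative to DMSO; stock transfer was 100 nL into about 100 µL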
Hedgehog inh – blocks Sonic Hedgehog signaling; Shh-LIGHT2 Gli-luciferase reporter, 30 h; inhibition, % (test concentration not listed); hit rate 2.1% among 22,000; AID 2313;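 active = replicate mean of 65% or more; inconclusive = mean lower but half the replicates past it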;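 also: pathway switched on by Shh-conditioned medium diluted 1 in 25 in low serum; 100 nL library stock added to about 40 µL; 0% = median of neutral wells and 100% = positive control level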
The depositor's hits bear a star; u = inconclusive; x = no result given. Some of the compounds tested; rates above refer to the full screens.

Short forms – A = PD-1 reverse act; B = MITF inhib; C = YB-1 expression; D = Hedgehog inh
1. CC(C)NC(=O)Nc1ccc2c(c1)C(=O)N([C@@H](C)CO)C[C@@H](C)[C@H](CN(C)S(=O)(=O)c1ccc(Cl)cc1)O2
  A: x	B: 2	C: -0.13	D: -5
2. O=C(CSc1nc2ccc(N3C(=O)c4ccccc4C3=O)cc2s1)c1ccccc1
  A: 0.6	B: 4	C: -0.14	D: -8
3. CCOC(=O)CN=C(c1ccccc1)c1ccccc1
  A: 1.9	B: -30	C: 0.066	D: 5
4. COC(=O)C(=O)CC(=O)c1c(F)c(F)c(OC)c(F)c1F
  A: 5.1	B: -6	C: 0.1	D: -19
5. CC(=O)c1cccc(-n2c(CCC(=O)O)ccc2-c2ccc(Br)cc2)c1
  A: -2.2	B: 3	C: x	D: x
6. Clc1ccc(CSC(Cn2ccnc2)c2ccc(Cl)cc2Cl)cc1 (stereo not drawn)
  A: 1.3	B: 4	C: -0.082	D: -36
7. C[C@@H]1CN([C@@H](C)CO)C(=O)c2cc(NC(=O)Nc3ccc(F)cc3)ccc2O[C@H]1CN(C)S(=O)(=O)c1ccc(F)cc1
  A: -2.6	B: -48	C: 0.068	D: -5
8. CC1C(c2ccccc2)CC(C(=O)O)C1(C)C (stereo not drawn)
  A: 0.2	B: 7	C: -0.64	D: -39
9. C[C@@H]1CCCCO[C@H](CN(C)Cc2ccc(C(=O)O)cc2)[C@@H](C)CN([C@H](C)CO)C(=O)c2cc(NC(=O)Nc3ccc4c(c3)OCO4)ccc2O1
  A: 1.3	B: -11	C: -0.16	D: -30
10. C[C@H]1CN([C@@H](C)CO)C(=O)Cc2cc(NC(=O)Cc3cn(C)c4ccccc34)ccc2O[C@@H]1CN(C)C(=O)Nc1cccc2ccccc12
  A: x	B: 27	C: 0.35	D: 32
11. C[C@@H]1CN([C@H](C)CO)C(=O)Cc2cc(NC(=O)Cc3ccccc3)ccc2O[C@@H]1CN(C)S(=O)(=O)c1cccs1
  A: -1.1	B: 11	C: 0.15	D: -7
12. Cn1c(SCc2nc3ccccc3c(=O)[nH]2)nnc1-c1cc2cc(Br)ccc2o1
  A: 2.3	B: 2	C: x	D: x
13. Cc1noc(C)c1S(=O)(=O)Nc1ccc2c(c1)C(=O)N([C@H](C)CO)C[C@H](C)[C@H](CN(C)Cc1ccc(Cl)c(Cl)c1)OCCCC[C@@H](C)O2
  A: 0.0	B: 17	C: 0.13	D: x
14. CCOc1ccc(C(=O)NC2CCCCC2)cc1
  A: -0.6	B: -13	C: 0.063	D: -99
15. CCC(=O)NC(c1ccccc1OC)c1c(O)ccc2ccccc12 (stereo not drawn)
  A: -1.7	B: 6	C: x	D: x
16. Cc1ccc(S(=O)(=O)N(Cc2cc3cccc(C)c3[nH]c2=O)c2ccccc2)cc1
  A: -3.2	B: 0	C: x	D: x
17. COc1ccc(-c2cc(C(F)F)n3ncc(C(=O)Nc4cccc(S(=O)(=O)N5CCOCC5)c4)c3n2)cc1
  A: -2.2	B: -44	C: x	D: x
18. C[C@@H]1CN([C@@H](C)CO)C(=O)c2cc(NC(=O)Cc3cn(C)c4ccccc34)ccc2O[C@@H]1CN(C)C(=O)NC1CCCCC1
  A: -0.9	B: u	C: 0.22	D: 14
19. CCCCc1c(O)cc(-c2ccccc2)n(Cc2ccccc2)c1=O
  A: 0.1	B: -4	C: 0.26	D: 5
20. Cc1noc(C)c1S(=O)(=O)N(C)C[C@H]1Oc2c(NS(=O)(=O)c3cn(C)cn3)cccc2C(=O)N([C@H](C)CO)C[C@H]1C
  A: x	B: -1	C: -0.47	D: -21
21. C[C@@H]1CN([C@@H](C)CO)C(=O)c2cccc(NC(=O)C3CCOCC3)c2O[C@@H]1CN(C)C(=O)Nc1ccc(F)cc1
  A: 1.4	B: -12	C: -0.3	D: -11
22. C[C@@H]1CN([C@@H](C)CO)C(=O)Cc2cc(NC(=O)Cn3cnnn3)ccc2O[C@@H]1CN(C)S(=O)(=O)c1ccccc1
  A: 0.3	B: 6	C: 0.3	D: -30
23. Cc1nn(Cc2cccc(Oc3ccccc3)c2)c(C)c1NC(=O)c1nc2ncccn2n1
  A: 2.0	B: 4	C: x	D: x
24. C[C@H]1CN([C@@H](C)CO)C(=O)c2cccc(NC(=O)c3cnccn3)c2O[C@@H]1CN(C)Cc1ccc(Oc2ccccc2)cc1
  A: -2.3	B: 5	C: -0.069	D: -9
25. C[C@H](CO)N1C[C@H](C)[C@@H](CN(C)C(=O)Nc2ccc(C(F)(F)F)cc2)Oc2c(NS(C)(=O)=O)cccc2C1=O
  A: -0.4	B: -11	C: -0.028	D: 24

Pulled by structure from the list above:
Short forms – A = PD-1 reverse act; B = MITF inhib; C = YB-1 expression; D = Hedgehog inh
19. CCCCc1c(O)cc(-c2ccccc2)n(Cc2ccccc2)c1=O
  A: 0.1	B: -4	C: 0.26	D: 5
12. Cn1c(SCc2nc3ccccc3c(=O)[nH]2)nnc1-c1cc2cc(Br)ccc2o1
  A: 2.3	B: 2	C: x	D: x
1. CC(C)NC(=O)Nc1ccc2c(c1)C(=O)N([C@@H](C)CO)C[C@@H](C)[C@H](CN(C)S(=O)(=O)c1ccc(Cl)cc1)O2
  A: x	B: 2	C: -0.13	D: -5
7. C[C@@H]1CN([C@@H](C)CO)C(=O)c2cc(NC(=O)Nc3ccc(F)cc3)ccc2O[C@H]1CN(C)S(=O)(=O)c1ccc(F)cc1
  A: -2.6	B: -48	C: 0.068	D: -5
8. CC1C(c2ccccc2)CC(C(=O)O)C1(C)C (stereo not drawn)
  A: 0.2	B: 7	C: -0.64	D: -39

(more compounds)
Short forms – A = PD-1 reverse act; B = MITF inhib; C = YB-1 expression; D = Hedgehog inh
26. CCOC(=O)/C(=N\O)C1=CSC2=NNC(C)(C)N12
  A: -2.9	B: 7	C: -0.46	D: 16
27. CCOc1ccc2nc(NCc3cc(OC)c(OC)cc3OC)sc2c1
  A: 0.2	B: 24	C: x	D: x
28. C[C@H]1CN([C@@H](C)CO)C(=O)c2cc(N(C)C)ccc2O[C@H]1CN(C)C(=O)Nc1cccc2ccccc12
  A: 1.2	B: 6	C: 0.082	D: -20
29. CC(=O)Nc1ccc(NC(=O)C(C)n2nc([N+](=O)[O-])c(Br)c2C)cc1 (stereo not drawn)
  A: 0.4	B: 1	C: x	D: x
30. COc1ccc(NC(=O)N(C)C[C@H]2Oc3ccc(NS(=O)(=O)c4ccc(C)cc4)cc3CC(=O)N([C@@H](C)CO)C[C@H]2C)cc1
  A: 1.3	B: -9	C: 0.19	D: -1
31. C[C@H](CO)N1C[C@H](C)[C@H](CN(C)C(=O)NC2CCCCC2)Oc2ccc(NC(=O)c3ccncc3)cc2CC1=O
  A: x	B: -11	C: -0.94	D: 9
32. CNC(=O)CN(c1cccc2ccccc12)S(C)(=O)=O
  A: 1.9	B: -9	C: x	D: x
33. C[C@@H]1CN([C@@H](C)CO)C(=O)Cc2cc(NC(=O)CCN3CCOCC3)ccc2O[C@@H]1CN(C)Cc1ccc(Oc2ccccc2)cc1
  A: -1.4	B: -12	C: -0.043	D: x
34. Cc1cc(=O)[nH]c(SCC(=O)Nc2ccccc2)n1
  A: 0.6	B: 12	C: x	D: x
35. C[C@]12C[C@H](O)[C@H]3[C@@H](CCC4=CC(=O)CC[C@@]43C)[C@@H]1CC[C@@H]2C(=O)CO
  A: x	B: -22	C: 0.51	D: 28
36. CC(C)NC(=O)Nc1ccc2c(c1)CC(=O)N([C@H](C)CO)C[C@@H](C)[C@H](CN(C)CC1CC1)O2
  A: 2.5	B: -1	C: 0.19	D: -17
37. C[C@@H]1CN([C@H](C)CO)C(=O)c2cc(NC(=O)C3CCCCC3)ccc2O[C@@H]1CN(C)Cc1ccc2c(c1)OCO2
  A: x	B: -10	C: -0.48	D: 4
38. C[C@@H]1CN([C@@H](C)CO)C(=O)Cc2cc(NC(=O)CCN3CCOCC3)ccc2O[C@@H]1CN(C)Cc1ccc(Cl)c(Cl)c1
  A: -0.5	B: -23	C: -0.008	D: 1
39. Nc1ccc(S(=O)(=O)C(F)(F)F)cc1
  A: -0.1	B: -16	C: -0.41	D: -3
40. FC(F)(F)COc1ccc(-c2nnc(SCc3ccccc3C(F)(F)F)o2)cn1
  A: 1.8	B: -26	C: -0.51	D: x
41. C[C@H](CO)N1C[C@H](C)[C@H](CN(C)C(=O)Nc2ccccc2)Oc2ccc(NC(=O)CCN3CCOCC3)cc2C1=O
  A: 0.6	B: -7	C: -0.0012	D: x
42. Cc1cccc(-n2c(N)cc(=O)nc2SCC(=O)N2c3ccccc3Sc3ccccc32)c1
  A: 0.0	B: -6	C: x	D: x
43. C[C@@H]1CN([C@@H](C)CO)C(=O)c2cccc(NC(=O)c3ccc(-c4nccs4)cc3)c2O[C@@H]1CN(C)S(=O)(=O)c1cn(C)cn1
  A: 2.8	B: -7	C: -0.38	D: -44
44. N#Cc1ccccc1NC(=O)COc1ccccc1[N+](=O)[O-]
  A: -0.1	B: -43	C: x	D: x
45. O=c1cc(-c2ccc(O)cc2)oc2c(C3OC(CO)C(O)C(O)C3O)c(O)c(C3OCC(O)C(O)C3O)c(O)c12 (stereo not drawn)
  A: x	B: x	C: -0.2	D: -36
46. C[C@@H]1CN([C@@H](C)CO)C(=O)Cc2cc(NC(=O)CCCCCC(=O)Nc3ccccc3N)ccc2O[C@@H]1CN(C)S(=O)(=O)c1cn(C)cn1
  A: 1.0	B: -11	C: 0.082	D: x
47. CC(C)NC(=O)N(C)C[C@@H]1Oc2ccc(N(C)C)cc2C(=O)N([C@H](C)CO)C[C@@H]1C
  A: 0.8	B: 2	C: -0.39	D: -42

Part of the list above, field by field:
31) C[C@H](CO)N1C[C@H](C)[C@H](CN(C)C(=O)NC2CCCCC2)Oc2ccc(NC(=O)c3ccncc3)cc2CC1=O
  PD-1 reverse act: x
  MITF inhib: -11
  YB-1 expression: -0.94
  Hedgehog inh: 9

32) CNC(=O)CN(c1cccc2ccccc12)S(C)(=O)=O
  PD-1 reverse act: 1.9
  MITF inhib: -9
  YB-1 expression: x
  Hedgehog inh: x

33) C[C@@H]1CN([C@@H](C)CO)C(=O)Cc2cc(NC(=O)CCN3CCOCC3)ccc2O[C@@H]1CN(C)Cc1ccc(Oc2ccccc2)cc1
  PD-1 reverse act: -1.4
  MITF inhib: -12
  YB-1 expression: -0.043
  Hedgehog inh: x
